# Screening results as filed in PubChem BioAssay.
# NPYLR7 agonist: activates Aedes aegypti NPYLR7 receptor. HEK293T NPYLR7/Galpha15, GCaMP6s calcium fluorescence. activation, % at 10 µM. 270,000 compounds, 0.15% hits. AID 1259423; in the data active = activation above about 40%;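 note: 0% = vehicle and 100% = reference agonist at the receptor; some compounds past the cut are filed as inactive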
# NPYLR7 agonist max-min: further read-out of NPYLR7 agonist, marked with its call; activation, %; measured here: Max-Min RFU normalised activation; some inactives read as strong as hits;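 span of the calcium signal over five minutes; 0% = vehicle and 100% = native peptide agonist; compound fluorescence can raise it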
# * = called active by the depositor; & = joins results of further samples. This is a subset; the hit share may differ from the screen's.
1: Cc1cc(O)c2c(c1)C(=O)c1cccc(O)c1C2=O
2: COc1cc2[nH]c(=O)[nH]c(=O)c2cc1OC
3: Cc1ccc(C(=O)C(C)CN2CCCCC2)cc1 (stereo unspecified)
4: Cc1c(Cc2ccccc2)sc(NC(=O)C2CCCCC2C(=O)O)c1C(N)=O (stereo unspecified)
5: CCOC(=O)Nc1ccc2c(c1)N(C(=O)CCN1CCOCC1)c1ccccc1S2
6: CC(C)(CO)[C@@H](O)C(=O)NCCCO
7: CCOc1ccc(Nc2nc(-c3c(C)nc4ccccn34)cs2)cc1
8: C#C[C@]1(O)CC[C@H]2[C@@H]3CCC4=CC(=O)CC[C@@H]4[C@H]3CC[C@@]21CC
9: COc1cc(C)nc(-n2nc(C)cc2OC)n1
10: CC1CCc2c(N3CCC(O)CC3)c(F)cc3c(=O)c(C(=O)O)cn1c23 (stereo unspecified)

assay / compound	1	2	3	4	5	6	7	8	9	10
NPYLR7 agonist	-7	4	-10&5	3	7	-4	-1	-8&-6	-3&-2	3
NPYLR7 agonist max-min	-13	5	-15&2	8	-4	-6	-6	-12&-10	-4&-5	7

11: O=C(c1ccccc1)c1ccc2n1CCC2C(=O)O (stereo unspecified)
12: Cc1nc(C(C)(C)NCC(=O)N2CC(C)OC(C)C2)sc1C (stereo unspecified)
13: CC(=O)Oc1ccc(/C=C2\N=C(c3ccc(C(C)(C)C)cc3)OC2=O)cc1
14: CCC(=O)Nc1cc(C(C)(C)C)on1
15: c1cncc(-c2n[nH]c(-c3cnccn3)n2)c1
16: Nc1ncnc(Nc2ccccc2)n1
17: NC(=O)NC(=O)Cc1ccccc1
18: Cn1cnc2c(F)c(Nc3ccc(Br)cc3F)c(C(=O)NOCCO)cc21
19: O=C(c1ccc(/C=C/c2n[nH]c3ccccc23)cc1)N1CCNCC1
20: CCC(Cc1c(I)cc(I)c(N)c1I)C(=O)O (stereo unspecified)

assay / compound	11	12	13	14	15	16	17	18	19	20
NPYLR7 agonist	-5&-1&-5&-2&6	9	3	4	4	11	-7	-1	-5	10&-15
NPYLR7 agonist max-min	-16&-9&-9&-3&-41	6	10	3	4	9	-12	-5	-12	-4&-22

# Laid out differently: results already given.
item	molecule	NPYLR7 agonist	NPYLR7 agonist max-min
20	CCC(Cc1c(I)cc(I)c(N)c1I)C(=O)O (stereo unspecified)	10&-15	-4&-22
17	NC(=O)NC(=O)Cc1ccccc1	-7	-12
11	O=C(c1ccccc1)c1ccc2n1CCC2C(=O)O (stereo unspecified)	-5&-1&-5&-2&6	-16&-9&-9&-3&-41
13	CC(=O)Oc1ccc(/C=C2\N=C(c3ccc(C(C)(C)C)cc3)OC2=O)cc1	3	10

# Later entries
21: NC(=O)c1ccc([N+](=O)[O-])cc1Cl
22: Cc1ccsc1/C=C/C1=NCCCN1C
23: CCC(C)n1ncn(-c2ccc(N3CCN(c4ccc(OC[C@H]5CO[C@](Cn6cncn6)(c6ccc(Cl)cc6Cl)O5)cc4)CC3)cc2)c1=O (stereo partly specified)
24: COc1ccc(F)c(F)c1C(=O)c1cnc(NC2CCN(S(C)(=O)=O)CC2)nc1N
25: CC[C@]12CCCN3CCc4c(n(c5ccccc45)[C@@](O)(C(=O)OC)C1)[C@@H]32
26: CN1C(=O)CC(C)(c2ccccc2)C1=O (stereo unspecified)
27: Oc1cc2c(cc1O)C1c3ccc(O)c(O)c3OCC1(O)C2 (stereo unspecified)
28: CCN(CC)CCOC(=O)C(c1ccccc1)c1ccccc1
29: CCOC(=O)Nc1ccc(NCc2ccc(F)cc2)nc1N
30: OC[C@H]1O[C@@H](c2ccc(Cl)c(Cc3ccc(O[C@H]4CCOC4)cc3)c2)[C@H](O)[C@@H](O)[C@@H]1O

assay / compound	21	22	23	24	25	26	27	28	29	30
NPYLR7 agonist	-3	-8&-6&-1	-5	-11	4	7	5	-12&-1	6	-1
NPYLR7 agonist max-min	-6	-16&-14&-6	-11	-14	2	11	-1	-17&-6	-20	-6

31: O=C(c1cn(Cc2cncn2Cc2ccc(Br)cc2)cc1-c1cccc2ccccc12)N1CCOCC1
32: CCc1cc(-c2n[nH]c(C)c2-c2ccc3c(c2)OCCO3)c(O)cc1O
33: CN(C)C(=N)N=C(N)N
34: CNC(=O)c1cccc(-c2ccc3c(N4CCOC[C@@H]4C)nc(N4CCOC[C@@H]4C)nc3n2)c1
35: OCCOCCN1CCN(C(c2ccccc2)c2ccc(Cl)cc2)CC1 (stereo unspecified)
36: Cc1cc(CN2CCN(c3c(Br)cnc4nc(-c5ccc(N6CCN(C)CC6)cc5)[nH]c34)CC2)no1
37: COc1ccc2cc(-c3nc(-c4ccc(S(C)=O)cc4)[nH]c3-c3ccncc3)ccc2c1 (stereo unspecified)
38: O=C(Nc1cccc(C(F)(F)F)c1)Nc1cc(S(=O)(=O)NC2CC2)ccc1-c1ccsc1
39: O=C1CCc2cc(OCCCCc3nnnn3C3CCCCC3)ccc2N1
40: CC(C)(C(=O)c1cccnc1)c1cccnc1

assay / compound	31	32	33	34	35	36	37	38	39	40
NPYLR7 agonist	-9	-5	2&-4&-5	0	-5&-9&-2	15	-5	-6	-12&-3&6	-1&-12&0
NPYLR7 agonist max-min	-13	-7	-11&2&-9	-10	-11&-12&-6	4	-12	-8	-17&-7&-8	-3&-15&-6

# A second format for part of the listing above.
32: CCc1cc(-c2n[nH]c(C)c2-c2ccc3c(c2)OCCO3)c(O)cc1O
  NPYLR7 agonist: -5 | NPYLR7 agonist max-min: -7
33: CN(C)C(=N)N=C(N)N
  NPYLR7 agonist: 2&-4&-5 | NPYLR7 agonist max-min: -11&2&-9
34: CNC(=O)c1cccc(-c2ccc3c(N4CCOC[C@@H]4C)nc(N4CCOC[C@@H]4C)nc3n2)c1
  NPYLR7 agonist: 0 | NPYLR7 agonist max-min: -10
35: OCCOCCN1CCN(C(c2ccccc2)c2ccc(Cl)cc2)CC1 (stereo unspecified)
  NPYLR7 agonist: -5&-9&-2 | NPYLR7 agonist max-min: -11&-12&-6

# Later entries
41: CN(CCOc1ccc(NS(C)(=O)=O)cc1)CCc1ccc(NS(C)(=O)=O)cc1
42: Cc1ccc(C(=O)N(CCCN)[C@@H](c2oc3cc(Cl)ccc3c(=O)c2Cc2ccccc2)C(C)C)cc1
43: CCCc1ncc(C(=O)O)s1
44: COC(=O)Nc1nc2ccc(S(=O)c3ccccc3)cc2[nH]1 (stereo unspecified)
45: O=C(OC1C[C@@H]2CC3C[C@H](C1)N2CC3=O)c1c[nH]c2ccccc12 (stereo partly specified)
46: Cc1ccccc1C(C(=O)NC1CCCCC1)N(C(=O)Cn1ccnc1C)c1cccc(F)c1 (stereo unspecified)
47: CCCc1cc(C(N)=S)ccn1
48: Nc1cc(=O)[nH]c(N)n1
49: CCOCCOC(=O)/C=C/c1ccc(OC)cc1
50: Cc1cnc(NC(=O)Nc2cc(Br)c(C)cc2OC[C@@H]2CNCCO2)cn1

assay / compound	41	42	43	44	45	46	47	48	49	50
NPYLR7 agonist	0	-2	-26	-4	-3	2	-23	-4	-24	0
NPYLR7 agonist max-min	-3	-5	-30	-3	-7	0	-26	-8	-34	-6

51: CCCN(CCC)C(=O)C(CCC(=O)O)NC(=O)c1ccccc1 (stereo unspecified)
52: CN(C)CCOC(=O)C(c1ccccc1)C1(O)CCCC1 (stereo unspecified)
53: CC(=O)O[C@@]12CO[C@@H]1C[C@H](O)[C@@]1(C)C(=O)[C@H](O)C3=C(C)[C@@H](OC(=O)[C@H](O)[C@@H](NC(=O)OC(C)(C)C)c4ccccc4)C[C@](O)([C@@H](OC(=O)c4ccccc4)[C@H]21)C3(C)C
54: CC(=O)OCC(=O)[C@@]1(O)CC[C@H]2[C@@H]3CCC4=CC(=O)CC[C@]4(C)C3(F)C(=O)C[C@@]21C (stereo partly specified)
55: O=C(NCCCN1CCC2(CC1)OCc1ccccc12)[C@H]1CCCN1Cc1ccccc1
56: CS(=O)(=O)N1CCc2c(-c3cnc(N)nc3)nc(N3CCOCC3)nc21
57: COc1cc(N2CCC(N(C)C)CC2)ccc1Nc1ncc(Cl)c(Nc2ccccc2P(C)(C)=O)n1
58: CN=C(NC#N)Nc1ccc(C2=NNC(=O)CC2C)cc1 (stereo unspecified)
59: CN1CCN(c2cc3c(cc2F)c(=O)c(C(=O)O)cn3-c2ccc(F)cc2)CC1
60: COc1ccc(S(=O)(=O)Nc2nnc(CC(C)C)s2)cc1

assay / compound	51	52	53	54	55	56	57	58	59	60
NPYLR7 agonist	1&5&-5	4&15&-11	-9	-1	-8	-11	0	5	-5	-20
NPYLR7 agonist max-min	-5&-39&-8	-5&-1&-16	-15	-4	-11	-14	-4	-40	-7	-28

61: Cc1ccc(C(=O)Nc2ccc(CN3CCN(C)CC3)c(C(F)(F)F)c2)cc1C#Cc1cnc2[nH]ncc2c1
62: CN1CCC(Nc2ncc3ncnc(Nc4ccc(F)c(Cl)c4)c3n2)CC1
63: OCC(O)CN1CCN(c2ccccc2)CC1 (stereo unspecified)
64: C[C@@H]1CC(=O)NN=C1c1ccc(NN=C(C#N)C#N)cc1
65: Cc1c(C(C)C)c(=O)n(-c2ccccc2)n1C
66: C[C@@H]1C[C@H]2[C@@H]3C[C@H](F)C4=CC(=O)C(Cl)=C[C@]4(C)[C@@]3(F)[C@@H](O)C[C@]2(C)[C@@]1(O)C(=O)CO
67: CCCc1cc(C)[nH]c(=O)c1CNC(=O)c1cc(-c2ccc(N3CCN(C(C)C)CC3)nc2)cc2c1cnn2C(C)C
68: C=CC(=O)Nc1cc2c(Nc3ccc(F)c(Cl)c3)ncnc2cc1OCCCN1CCOCC1
69: CN(C)CCC[C@@]1(c2ccc(F)cc2)OCc2cc(C#N)ccc21
70: Cc1ccc(Nc2c(F)cccc2Cl)c(CC(=O)O)c1

assay / compound	61	62	63	64	65	66	67	68	69	70
NPYLR7 agonist	5	-8	-5&-2	-4	-15	-9	2	-4	-3&-7&-2	-6
NPYLR7 agonist max-min	-4	-11	-12&-6	-9	-27	-14	-4	-8	-8&-16&-4	-7

71: CCCCOC(=O)c1ccc(N)cc1
72: Cc1nc2c([nH]1)c(=O)n(C)c(=O)n2Cc1ccco1
73: O=C1c2ccccc2C(=O)c2c(O)c(O)cc(O)c21
74: O=c1[nH]c(-c2ccc(C(F)(F)F)cc2)nc2c1CSCC2
75: O=C(NCCN1CCOCC1)c1ccc(Cl)cc1
76: NC(=O)c1ccc(-c2nc(-c3ccc4c(c3)OCO4)c(-c3ccccn3)[nH]2)cc1
77: CN1CCN(CCCN2c3ccccc3Sc3ccc(S(=O)(=O)N(C)C)cc32)CC1
78: O=c1cc(N2CCOCC2)nc2c3ccccc3ccn12
79: Nc1ccc(S(=O)(=O)NCc2ccccc2)cc1
80: O=C(O)CCCCCCCC(=O)O

assay / compound	71	72	73	74	75	76	77	78	79	80
NPYLR7 agonist	-8&-9	-2	-2	-13	-6&-10	2&-5	-1	-12	-17	-3&1
NPYLR7 agonist max-min	-17&-12	-24	-1	-21	-10&-13	-6&-13	-3	-15	-22	-9&-11

81: CO[C@@H](C(=O)N1Cc2[nH]nc(NC(=O)c3ccc(N4CCN(C)CC4)cc3)c2C1)c1ccccc1
82: Cc1cc(-c2ncc(CC(=O)Nc3ccc(-c4cnccn4)cn3)cc2C)ccn1
83: CN1CCN(c2c(F)cc3c(=O)c(C(=O)O)cn4c3c2SCC4)CC1
84: COC(c1ccccc1)(c1ccccc1)[C@H](Oc1nc(C)cc(C)n1)C(=O)O
85: Nc1ccc(N2CCOCC2)cc1N1CCOCC1
86: COc1cc2nccc(Oc3ccc(NC(=O)Nc4cc(C)on4)c(Cl)c3)c2cc1OC
87: Cc1[nH]c(/C=C2\C(=O)Nc3ccccc32)c(C)c1CCC(=O)O
88: CN1CCN(C(=O)C2CCCCC2)CC1
89: O=C(NC1CCNCC1)c1[nH]ncc1NC(=O)c1c(Cl)cccc1Cl
90: Cc1oncc1C(=O)Nc1ccc(C(F)(F)F)cc1
91: CCN1CC(CCN2CCOCC2)C(c2ccccc2)(c2ccccc2)C1=O (stereo unspecified)
92: CNC(=O)c1ccc(C)c(-n2c(C)cc(OCc3ccc(F)cc3F)c(Br)c2=O)c1

assay / compound	81	82	83	84	85	86	87	88	89	90	91	92
NPYLR7 agonist	-11	4	4&-9	-4	5	-5	74*	-15	0	-9&-9&-2	-8	-5
NPYLR7 agonist max-min	-16	-4	7&-7	-10	3	-11	69*	-25	-8	-19&-15&13	-10	-8
